Screening data as filed in PubChem.
PABP polyA inh: blocks human PABP binding to poly(A) RNA | fluorescence polarization | P11940 | 290,000 tested, 1% active | AID 2014 | inhibition, % at 35 µM;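 active = 50% or more with normal probe brightness, or confirmed in later tests; inconclusive = above 50% with abnormal brightness, or retests that disagree; inactive = below 50% or failed in later tests; about a fifth of its hits are not listed in these tables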;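 note: calls also rest on retests at 20 µM and on dose response follow-up; controls were probe without protein and protein plus probe with vehicle; some compounds called inactive have numbers as strong as hits; many hits fall short of the cut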
HIV Env fusion: blocks HIV Env-driven cell-cell fusion | HeLa-JRFL Env/CEM21 cell fusion, luciferase | 360,000 tested, 1.1% active | inhibition, % at 12.3 µM;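 active = mean replicate inhibition score of at least 50 and every replicate individually at or above 50; inconclusive = only one of the two criteria met; inactive = mean below 50 and not all replicates reaching 50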;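 note: 0% = plate neutral controls and 100% = maraviroc near 300 nM; one replicate is shown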
Yeast UUG start: yeast start codon fidelity modulation. S. cerevisiae UUG-firefly luciferase reporter, luminescence/redox ratio. activity score, % at 18.7 µM. 350,000 tested, 0.13% active. AID 602363;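 active = replicate mean at a twofold rise or more, about +100% in these data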;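 note: firefly luciferase made from a UUG start codon reports start codon fidelity; reporter light over untreated wells divided by growth signal over untreated wells; some hits fall short of that in this replicate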
Rce1 inhib: inhibitors of yeast Ras-converting enzyme | Q03530 | yeast membranes, quenched prenylated peptide cleavage fluorescence | calls only | 290,000 tested, 0.27% active;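 active = fall in fluorescence gain of 50% or more versus controls, with final raw signal at or below 3038400; inconclusive = same 50% fall but final raw signal above 3038400; inactive = fall in fluorescence gain under 50%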;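 note: plate controls were neutral control wells for no effect and wells lacking membranes for full effect; tested at 10 µM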
Target sequence (Q03530 whole entry, looked up): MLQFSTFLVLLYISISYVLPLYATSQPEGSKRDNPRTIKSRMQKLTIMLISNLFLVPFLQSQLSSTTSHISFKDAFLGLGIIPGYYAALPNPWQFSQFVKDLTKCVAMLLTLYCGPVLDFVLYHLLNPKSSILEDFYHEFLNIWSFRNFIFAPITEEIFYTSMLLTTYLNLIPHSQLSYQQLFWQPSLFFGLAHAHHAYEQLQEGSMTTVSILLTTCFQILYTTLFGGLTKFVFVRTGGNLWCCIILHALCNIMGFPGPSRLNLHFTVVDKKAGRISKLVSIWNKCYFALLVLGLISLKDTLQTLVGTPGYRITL
CSC inhib: blocks cancer stem cells. cancer stem cell-like cells viability, luminescence. inhibition, % at 7.5 µM. 300,000 tested, 1.1% active;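 active = mean at 75% or more and at least half the replicates too; inconclusive = mean and replicates disagree; tested in HMLE shEcad cells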;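 note: 0% = median of negative and 100% = median of positive control wells; the first replicate is given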
MT1-MMP act inh: inhibitors of human MT1-MMP activation | AID 651647 | HT1080 RFP-PRO-GFP cells, GFP/RFP ratio fluorescence, overnight; percent of plate control window, DMSO zero | 360,000 tested, 0.061% active | GFP/RFP ratio change, % at 20 µM;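 active = GFP/RFP ratio change of at least 30% with cell ATP level not reduced by more than half and red fluorescence within 50% of control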; note: strong numbers were not always called active
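Read-out: GFP/RFP fluorescence ratio; Test system: RFP-PRO-GFP reporter HT1080 cells; Compound dosing: single-point 20 µM compound, 1% DMSO; Times: overnight compound exposure at 37 °C.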
eIF4H FP inh: inhibitors of RNA binding by human eIF4H | eIF4H fluorescence polarization binding assay | inhibition, % at 35 µM | 290,000 tested, 0.94% active | AID 2012;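 active = 50% or more with normal probe brightness, or confirmed in later tests; inconclusive = above 50% with abnormal brightness, or retests that disagree; inactive = below 50% or failed in later tests; about a fifth of its hits are not listed in these tables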;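 note: calls also rest on retests at 20 µM and on dose response follow-up; 0% = protein and probe with vehicle and 100% = probe without protein; strong numbers were not always called active; many hits fall short of the cut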
MT1-MMP act inh RFP: further read-out of MT1-MMP act inh, marked with its call; RFP signal change, %; measured here: RFP expression control read;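 0 = vehicle wells; hits needed this value within 50% of zero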
Numbers without * were called inactive; i = inactive; ? = inconclusive; . = not tested or not shown.

SMILES | PABP polyA inh | HIV Env fusion | Yeast UUG start | Rce1 inhib | CSC inhib | MT1-MMP act inh | MT1-MMP act inh RFP | eIF4H FP inh
O=C(COC(=O)C1CCN(c2ccc(C(F)(F)F)cn2)CC1)Nc1ccc(F)cc1[N+](=O)[O-] | . | . | . | i | -4 | 1 | 0 | .
Cc1onc(-c2ccccc2)c1C(=O)NNC(=S)NC(=O)c1ccc2c(c1)OCO2 | 2 | 0 | -34 | i | 24 | 7 | 3 | 13
CCN1CNC(=S)N(c2cccc(C)c2)C1 | -1 | -3 | -13 | i | -12 | 2 | 0 | -11
CCCN(C(=O)CSc1nc2c(cnn2-c2ccccc2)c(=O)[nH]1)C1CCS(=O)(=O)C1 (stereo unspecified) | -9 | 21 | -4 | i | -6 | -3 | 3 | -6
COc1cc(OC)cc(C(=O)N2CCC(C(=O)Nc3ccc4c(c3)OCCO4)CC2)c1 | 23 | 20 | 10 | i | -8 | 10 | 3 | -2
COc1ccccc1CNC(=O)C1CCN(S(=O)(=O)c2ccc3c(c2)OCCO3)CC1 | 9 | 11 | -20 | i | . | 4 | 2 | 0
Oc1[nH]c2ccccc2c1C=Nc1ccc2c(c1)OCCO2 | 5 | . | . | i | . | -3 | -5 | -4
COc1ccccc1N1CCN(C(=O)c2cc(-c3ccc(Cl)c(Cl)c3)on2)CC1 | 3 | 9 | . | i | . | -2 | 0 | -2
O=C(c1cccc(Br)c1)N1CCN(c2ccccn2)CC1 | . | -46 | -1 | i | -8 | 0 | -2 | .
CCOC(=O)CNC(=O)CSc1ncnc2c1cnn2-c1ccccc1 | 19 | . | -9 | i | . | 4 | 0 | -1
CC(=O)Nc1cc(NC(C)=O)cc(C(=O)OCC(=O)N2CC(C)OC(C)C2)c1 (stereo unspecified) | 3 | . | 2 | . | 2 | 2 | 8 | 9
Oc1ccc(/C=N/n2c(-c3ccccc3)n[nH]c2=S)cc1 | 1 | -5 | -20 | i | -18 | -1 | -3 | -13
COc1ccc(/C=C/c2n[nH]c(=O)c(C#N)c2C)cc1 | 8 | 8 | -13 | i | -8 | 0 | -2 | 6
O=C(CCCN=C1NS(=O)(=O)c2ccccc21)OCC(=O)c1ccc(F)cc1 | . | -7 | -15 | i | -7 | 2 | 0 | .
COC(=O)c1sccc1NC(=O)Nc1ccc(Cl)c(Cl)c1 | -1 | . | -16 | i | 3 | 1 | -6 | -2
CN(C)c1ccc(/C=N/NC(=O)CCCO)cc1 | -5 | -8 | . | i | 0 | -4 | -1 | -1
C=CCn1c(=O)c2c3c(sc2n2c(Nc4ccc(C(=O)OCC)cc4)nnc12)CCCC3 | 11 | 31 | -8 | i | . | 9 | -10 | 6
CCOc1ccc(NCCC#N)cc1 | -4 | -18 | -16 | i | -21 | 0 | 1 | -13
O=C(c1ccc(N2C(=O)c3ccccc3C2=O)cc1)N1CCN(S(=O)(=O)c2ccccc2F)CC1 | . | -11 | -5 | . | . | 1 | 0 | .
CCc1ccc(NC(=O)CN(c2ccc(OC)cc2)S(=O)(=O)c2c(C)[nH]c(=O)[nH]c2=O)cc1 | 29 | -5 | 0 | i | . | -1 | 0 | -6
C=CCNC(=O)c1onc(CSc2cccc(Cl)c2)c1C(=O)O | 2 | -16 | -12 | i | 44 | -2 | 1 | 2
CCCn1c(N)c(C(=O)CN(C)CC(=O)Nc2c(C)cc(C)cc2C)c(=O)[nH]c1=O | . | 8 | -3 | . | . | 6 | 4 | .
O=C1C=C(NCC2CCCO2)CC(c2ccccc2)C1 (stereo unspecified) | 10 | . | . | i | . | 2 | 8 | 1
CCOc1ccc2[nH]c3c(=O)n(CCc4ccc(OC)cc4)cnc3c2c1 | -4 | 8 | -17 | i | -7 | 3 | -2 | 6
CCOc1ccccc1NC(=O)NNC(=O)COc1cccc(C)c1C | -4 | -45 | -21 | i | -2 | -1 | 0 | -7
SMILES | PABP polyA inh | HIV Env fusion | Yeast UUG start | Rce1 inhib | CSC inhib | MT1-MMP act inh | MT1-MMP act inh RFP | eIF4H FP inh
CC(C)(C)C(=O)/C(C#N)=C/c1ccc(O)cc1 | 7 | -24 | -8 | i | -13 | 1 | 4 | -9
CC(C)COP(=O)(c1ccc(N(C)C)cc1)C(O)c1ccncc1 (stereo unspecified) | 5 | -13 | -9 | i | -14 | 1 | 3 | -12
CCC(Sc1ccc2nnc(-c3cccnc3)n2n1)C(=O)OC (stereo unspecified) | 1 | 2 | -18 | i | . | 3 | 6 | -3
COc1cccc(NS(=O)(=O)c2ccc3c(c2)CCN3C(C)=O)c1 | -12 | 26 | -17 | i | 6 | -6 | -24 | -14
C=CCn1c(SCC(=O)Nc2cc(C)c(Cl)cc2OC)nnc1-c1ccco1 | -3 | 7 | -1 | i | -13 | -2 | -6 | 6
O=S(=O)(NCCc1ccccc1)c1ccc(F)cc1 | -9 | 3 | -4 | i | -5 | 3 | 5 | -11
CCc1ccc(CCC(=O)Nc2sc(C)c(C)c2C(=O)OC)o1 | -2 | . | 13 | i | 11 | 3 | 3 | 4
Cc1ccc(C(=O)n2nc(-c3ccccc3)nc2NCc2ccco2)cc1 | 18 | . | -17 | i | -14 | -7 | 0 | 4
Cc1c(NS(=O)(=O)c2cccc(C(=O)Nc3ccccc3)c2)c(=O)n(-c2ccccc2)n1C | . | . | -9 | . | -2 | -2 | -3 | .
COc1ccccc1NC(=O)c1nn(-c2ccc(F)c(F)c2)ccc1=O | -1 | . | -6 | i | -7 | 0 | 10 | 5
CCC(CC)C(=O)c1c[nH]c(C(=O)NCCCN2CCOCC2)c1 | 5 | -109 | -18 | i | -10 | -2 | 0 | -10
CCN(CC)S(=O)(=O)c1ccc(Cl)c(NC(=O)c2cc(Cl)cc(Cl)c2)c1 | -6 | . | . | i | -8 | 4 | 5 | -4
Cn1c(CN2CCCCC2)nc2cc([N+](=O)[O-])ccc21 | -6 | 12 | . | i | 8 | 1 | 4 | -4
CO/N=C(/COc1ccc(F)cc1)c1ccc(OC)cc1 | 1 | 20 | -12 | i | 7 | -1 | 2 | 7
NS(=O)(=O)c1cccc(NC(=O)CCSc2ccc(Cl)cc2)c1 | -6 | -60 | -17 | i | -10 | 2 | -1 | 1
COc1cc(Cc2ccc(N)c(OC)c2)ccc1N | 1 | -5 | . | i | -7 | 5 | 4 | -4
N#Cc1ccc(C(=O)OCC(=O)N2CCOCC2)cc1 | 4 | -11 | . | i | 6 | -3 | 2 | -23
CC(=O)OCC1=C(C(=O)O)N2C(=O)C(NC(=O)CCn3nc(C)c(Cl)c3C)C2SC1 (stereo unspecified) | 10 | -33 | . | i | -13 | -1 | -3 | -6
Cc1cc2cc(C)c(NCCNC(=O)c3ccccc3F)nc2cc1C | -4 | -29 | . | i | 22 | -6 | -3 | -11
CCOCCCNC(=S)Nc1cc(C)cc(C)c1 | 16 | 4 | . | i | -12 | -1 | 4 | 5
COc1ccc(S(=O)(=O)N2CCCC(C(=O)NCc3cccnc3)C2)cc1 (stereo unspecified) | -15 | 5 | -20 | i | . | -2 | -1 | 0
COc1ccccc1NC(=O)COc1ccc2ccccc2c1 | -4 | -13 | -10 | i | -3 | 4 | 4 | -2
Cc1ccc(Cl)cc1N1CCN(C(=O)c2ccc3nc[nH]c3c2)CC1 | -14 | 12 | . | i | 11 | 2 | -3 | 6
O=C(Nc1cccc(-c2nc3ccccc3s2)c1)c1ccc2c(c1)OCO2 | 1 | . | -13 | i | 28 | -3 | -2 | 8
Cc1nnc(SCc2nnc(-c3cccs3)o2)s1 | -8 | -15 | 7 | i | -5 | -3 | -3 | 2
SMILES | PABP polyA inh | HIV Env fusion | Yeast UUG start | Rce1 inhib | CSC inhib | MT1-MMP act inh | MT1-MMP act inh RFP | eIF4H FP inh
Cc1ccc(NC(=O)c2ccc(Br)o2)c([N+](=O)[O-])c1 | . | 12 | -4 | . | . | 0 | 4 | .
O=C(NNC(=O)c1ccco1)c1cccc(Br)c1 | -7 | -35 | -16 | i | 3 | 4 | 4 | 8
CC(=O)OCC1OC(OCc2cn(C[C@H]3CC[C@@H]([C@@H]4CC[C@H](Cn5cc(COC6OC(COC(C)=O)C(OC(C)=O)C(OC(C)=O)C6OC(C)=O)nn5)O4)O3)nn2)C(OC(C)=O)C(OC(C)=O)C1OC(C)=O (stereo partly specified) | 5 | 5 | 9 | i | -18 | -2 | 1 | 3
O=C(NCc1ccc(Cl)cc1)C1CCC(CNc2c(N3CCOCC3)c(=O)c2=O)CC1 (stereo unspecified) | 34 | 3 | 0 | i | -14 | 0 | -3 | 22
O=C1OCCN1S(=O)(=O)Nc1ccccc1 | -7 | 4 | -6 | i | 9 | 0 | 2 | -2
CCN(C[C@H]1N[C@@](CC)(C(=O)OC)[C@H]2C(=O)N(Cc3ccccc3)C(=O)[C@@H]12)S(=O)(=O)c1ccc(C(F)(F)F)cc1 | . | 99* | -9 | . | 45 | -2 | -4 | .
O=C(OCC1OC2C(Oc3nc(=O)ccn32)C1O)c1ccccc1 (stereo unspecified) | 6 | -4 | -1 | i | -8 | 1 | 5 | 0
N/C(=N\OC(=O)Cc1cccs1)c1ccccc1 | 2 | -80 | -20 | i | -16 | -5 | -1 | 2
COc1ccc(OC)c(S(=O)(=O)N2CCc3ccccc32)c1 | -7 | . | 7 | i | 4 | 3 | 1 | -2
Cc1nc(NS(=O)(=O)c2ccccc2)sc1C(=O)NN | 15 | 10 | . | i | -14 | 1 | 2 | 4
COc1ccc(C(=O)NCCCNC(=O)c2ccc(C)nc2)cc1 | 9 | -2 | -15 | i | . | -3 | 1 | -3
COc1ccc2c(CC(=O)Nc3nccs3)coc2c1 | -5 | -25 | -21 | i | 9 | 1 | 2 | -4
CCCCn1c(N)c(N(CCC(C)C)C(=O)c2c(C)noc2C)c(=O)[nH]c1=O | . | -101 | . | i | -18 | -2 | -3 | .
O=C(NCCS(=O)(=O)N1CCN(Cc2ccccc2)CC1)c1ccc(F)cc1 | . | -13 | -1 | i | . | 3 | 2 | .
O=C(CCC1CCCC1)NNC(=O)c1ccc(F)cc1 | . | -1 | 1 | . | . | -4 | 2 | .
Fc1cccc(Cc2c(-c3ccccc3)nc3ccc(Br)cn23)c1 | . | -9 | -17 | . | . | -4 | -2 | .
CC(=O)Nc1ccc2c(c1)nc(CCN1CCC(C)CC1)n2C | 1 | -27 | -23 | i | -19 | -10 | -2 | -1
Cc1ccc(CSCC(=O)Nc2ccccc2C(=O)O)cc1 | 8 | -16 | -9 | i | 34 | 2 | -4 | -11
Cn1c(=O)c2[nH]c(-c3ccccc3Cl)c(O)c2n(C)c1=O | -8 | 23 | . | i | -7 | -2 | 3 | ?
N#CCc1ccc(NS(=O)(=O)c2ccc(C3CCCCC3)cc2)cc1 | 19 | . | -11 | i | 29 | -4 | -23 | 3
c1ccc2[nH]c(CN3CCN(c4ncnc5c4oc4ccccc45)CC3)nc2c1 | -6 | . | -25 | . | -12 | -11 | -17 | -13
NC(=O)C1CC(=O)N(c2ccc(OCc3ccc(Cl)cc3)cc2)C1 (stereo unspecified) | -4 | -29 | 4 | . | 0 | 4 | 6 | -3
CC(C(=O)N1CCc2ccccc21)N1CCN(S(=O)(=O)c2ccc(C(F)(F)F)cc2)CC1 (stereo unspecified) | . | -18 | 10 | . | 66 | -1 | -5 | .

Molecules from the list above that have a nitro group on carbon, in the order listed:
SMILES | PABP polyA inh | HIV Env fusion | Yeast UUG start | Rce1 inhib | CSC inhib | MT1-MMP act inh | MT1-MMP act inh RFP | eIF4H FP inh
O=C(COC(=O)C1CCN(c2ccc(C(F)(F)F)cn2)CC1)Nc1ccc(F)cc1[N+](=O)[O-] | . | . | . | i | -4 | 1 | 0 | .
Cn1c(CN2CCCCC2)nc2cc([N+](=O)[O-])ccc21 | -6 | 12 | . | i | 8 | 1 | 4 | -4
Cc1ccc(NC(=O)c2ccc(Br)o2)c([N+](=O)[O-])c1 | . | 12 | -4 | . | . | 0 | 4 | .

Hits appear at their usual frequency (roughly 3% active in at least one column).
